From PubChem
Vaccinia Venus = vaccinia inhibition (Venus reporter). Vaccinia virus Venus reporter expression, fluorescence. hit rate 0.46% among 330,000. Potency, µM (doses to about 36.5 µM), for the others: top-dose activity change, negative = inhibition, usual class: inhibitors; active means well fitted inhibition curve with a large enough effect; inconclusive means small, poorly fitted or top-dose-only effect; inactive means no such curve, though single readings can be large or run the other way; tested in A549 cells; further: nearly all actives have a fitted effect of over 30% in size; inactives centre near -10
VACV mCherry inh = vaccinia inhibition (mCherry reporter); Vaccinia virus mCherry reporter infection, fluorescence; about a quarter of the inactives have no number; Potency, µM (highest dose often 36.5 µM), inactives show top-dose activity change, negative = inhibition, actives largely listed as inhibitors; hit rate 0.63% among 310,000; AID 720579; active = well fitted inhibition curve with a large enough effect; inconclusive = small, poorly fitted or top-dose-only effect; inactive = no such curve, though single readings can be large or run the other way; tested in A549 cells; further: nearly all actives have a fitted effect of over 35% in size; inactives centre near -10
* = called active by the depositor; i = inactive; ? = inconclusive; . = no result given; & = joins results of further samples; [ ] = dose if it differs, or a comment. On the % scale 0 is the no-effect control and ±100 the full control effect; potency means the concentration at half of the fitted maximal effect.

SMILES	Vaccinia Venus	VACV mCherry inh
COC(=O)c1ccc2nc(-c3ccc(C#N)cc3)c(Cc3ccsc3)n2c1	-3%	-5%
COc1cc2ccccc2cc1C(=O)Nc1cc(C)ccn1	-10%	-10%
Clc1ccc2c(c1)c1ccccc1n2CN1CCOCC1	?	i[1.46 µM]
COc1cc(CCC(=O)Oc2ccc(C(C)=O)cc2)cc(OC)c1OC	-7%	-10%
CC(C)c1ccc(C2=C(O)c3ccccc3C(=O)C2=O)cc1	-12%	-11%
O=C1NC(=O)C(=CCc2ccccc2)C(=O)N1	-8%	-9%
COc1ccc(CCN2CC(C(=O)N(C)CC(=O)Nc3ccc(Cl)c(C(F)(F)F)c3)CC2=O)cc1OC (configuration not stated)	-21%	-6%
CCCNC(=O)c1cnc2sc(N3CCCCCC3)nn2c1=O	-9%	-8%
COc1cc(NC(=O)CN2C(=O)C(c3ccccc3)=NC23CCCCCC3)cc(OC)c1	-14%	-15%
Cc1ccc(-c2cn3cccnc3n2)cc1NC(=O)c1cccs1	-9%	-10%
CCOC(=O)N1CCC(N(CCN(C)C)C(=S)Nc2ccccc2Cl)CC1	2%	i
CCOC(=O)c1ccoc1CN1CCN(S(=O)(=O)c2ccc(C)c(C)c2)CC1	-7%	i
CN(c1nnc(NC(=O)Nc2ccccc2C(F)(F)F)s1)C1CCCCC1	-3%	-8%
Cc1cc(=O)c(C(=O)OC(C)C(=O)NC(N)=O)nn1-c1ccc(Cl)cc1 (configuration not stated)	-5%	-2%
O=C(NCCCN1CCN(c2ccc(F)cc2)CC1)c1cc2c(s1)-c1ccccc1OC2	-13%	-28%
O=C(Cn1c(=O)n(-c2ccccc2)c(=O)c2sc3ccccc3c21)NC1CCCC1	-10%	-9%
O=C1NC[C@@H](Cc2cccc3ccccc23)N(CC2(c3ccccc3)CC2)C1=O	?	?
CC(C)(C)c1ccc(-c2n[nH]c(=S)n2-c2ccccc2)cc1	-13%	-12%
COCc1cc(C)nc(SCC[N+](C)(C)CC(=O)Nc2ccccc2)c1C#N	2%	-8%
Cc1cccc(Cn2c(N3CCN(C)CC3)nc3c2c(=O)n(C)c(=O)n3C)c1	-25%	-1%
CCN(Cc1ccccc1)C(=O)c1oc2ccc(C)cc2c1C	-6%	-25%
CCOC(=O)N1CCN(C(=O)/C(=C\c2cccs2)NC(=O)c2cccs2)CC1	7%	-20%
Cc1nnc(SCC(=O)N2CCN(S(=O)(=O)c3ccccc3)CC2)s1	-7%	-19%
CCc1noc(C)c1C(=O)Nc1nc(-c2ccc(NC(C)=O)cc2)cs1	-11%	-18%
COc1ccc(N(C(=O)Cn2nnc3ccccc32)C(C(=O)NCc2ccco2)c2ccc(C)o2)cc1 (configuration not stated)	-17%	.
CCOc1ccc(Cc2nnc(N)s2)cc1OCC	-16%	.
CCCS(=O)(=O)N1CCC(C(=O)NCCCN(CC)c2cccc(C)c2)CC1	-19%	.
O=C(Cc1ccc([N+](=O)[O-])cc1)Nc1ccc2c(c1)CCC2	-7%	-4%
O=C(CCn1c(=O)oc2ccccc21)NCCCN1CCOCC1	9%	-16%
Cc1ccnc(NC(=O)CCC(=O)N(Cc2ccco2)C(C(=O)NC(C)C)c2ccc(F)cc2)c1 (configuration not stated)	-16%	i
CCOc1ccc(C2/C(=C(\O)c3ccc4c(c3)OCCO4)C(=O)C(=O)N2Cc2cccnc2)cc1OCC (configuration not stated)	-6%	i
CC(=O)NC(c1ccccc1)c1nc(-c2csc3ccccc23)cs1 (configuration not stated)	-26%	i
COc1ccccc1N1CC(C(=O)Nc2ccc(S(=O)(=O)N3CCOCC3)cc2)CC1=O (configuration not stated)	-5%	-10%
COc1ccc(CNc2nc(-c3ccc(Cl)cc3)nn2S(=O)(=O)c2ccc(C)cc2)cc1	1%	-13%
CCc1ccc(OCCSc2nc3ccccc3n2CC(=O)N2CCCCC2)cc1	-13%	-11%
O=c1cc(CSc2ncn[nH]2)[nH]c2c(Cl)cccc12	-19%	-11%
Cc1c(Cl)ccc2c(C(=O)NCCN3CCCCC3)cc(-c3ccccn3)nc12	-6%	i
CCOc1ccccc1NC(=O)COC(=O)CN1C(=O)NC(C)(C)C1=O	-18%	-15%
COc1ccc(-c2c(NC(=O)c3ccco3)oc3c(C)cccc3c2=O)cc1	-14%	-2%
O=C1Nc2ccc(Br)cc2C(c2ccccc2Cl)=NC1O (configuration not stated)	-10%	-11%
COc1cc(NC(=O)Cn2nnnc2-c2ccccc2F)cc(OC)c1OC	-2%	-6%
CN(C)C=NC(=O)c1ccc(N2CCN(c3ncc(C(F)(F)F)cc3Cl)CC2)cc1	-12%	.
O=S(=O)(c1ccc(Cl)cc1)N1CCN(c2nc(-c3cccs3)nc3ccccc23)CC1	-13%&-4%&-22%	-19%&-9%&-21%
CC(=O)c1ccc(N2CCN(S(=O)(=O)c3ccccc3)CC2)c(F)c1	-4%	-12%
CC(C)NC(=O)CN1CCN(C(=O)CCl)CC1	10µM*	13µM*
Cc1cc2oc3ccc(NCCCN4CCOCC4)cc3c(=O)c2cc1C	-29%	-26%
Cc1cc(C)n(CC(O)Cn2c3ccccc3c3ccccc32)n1 (configuration not stated)	?	?
CSc1nc(-c2ccccc2)[nH]c(=S)c1C(C)=O	-17%	.
CCOC(=O)C1C(c2ccc(O)c(OCC)c2)NC(=S)NC1(O)C(F)(F)F (configuration not stated)	-6%	-15%
CC12CCC(C/C1=N\OC(=O)c1c(F)cccc1F)C2(C)C (configuration not stated)	12%	-12%
Fc1ccc(-c2cc(-c3ccccc3)c3c(n2)-c2ccccc2OC3)cc1	7%	12%
CCOc1ccc(CCNC(=O)c2cnc3c(-c4ccccc4)c(C)nn3c2C)cc1OCC	-10%	-5%
COc1ccc(CN(C#N)c2nc(SC)nc(N(C)C)n2)cc1	-11%	-5%
O=C(NCCc1ccccc1)c1ccccc1Cl	-7%	-4%
CCC(c1nnc(SCC(=O)N(C)c2ccccc2)n1Cc1ccccc1)N(C)C (configuration not stated)	2%	-8%
Cc1cc(NC(=O)c2cc(S(=O)(=O)N3CCCCC3)ccc2C)n(-c2ccccn2)n1	-26%	.
CCOC(=O)N1CCC(N2Cc3cccc(C(=O)N4CCN(C5CCCCC5)CC4)c3C2=O)CC1	-13%	-10%
COC(=O)c1ccc(CN2CCc3ccc(NC(=O)c4ccncc4)cc3C2)cc1	-20%	-5%
Cc1n[nH]c(=S)n(/N=C/c2ccccn2)c1=O	5%	.
Cc1ccccc1OCC(=O)NCCC1=CCCCC1	-10%	-18%
Further results
SMILES	Vaccinia Venus	VACV mCherry inh
NCCCC[C@H]1CN=C(N)N1CCC12CC3CC(CC(C3)C1)C2	-15%	-12%
Cc1ccc(N(CC(O)CN2C(=O)NC(C)(C)C2=O)S(=O)(=O)c2ccc(C)cc2)cc1 (configuration not stated)	-10%	i
CC(C)NP(=O)(NC(C)C)OP(=O)(NC(C)C)NC(C)C	-20%	i
CCC/C(O)=C1\C(=O)CC(C)(C)CC1=Nc1ccccc1O	-10%	-10%
Cc1cccc(CSc2nc3c(c(=O)[nH]2)C(c2cccc(O)c2)CC(=O)N3)c1 (configuration not stated)	-13%	-5%
Cc1ccc(NC(=O)CSc2n[nH]c(=O)n2C2CC2)cc1S(=O)(=O)N1CCOCC1	-12%	-17%
Cc1[nH]n(-c2ccc(Br)cc2)c(=O)c1C=Nc1ccc(S(=O)(=O)Nc2nccs2)cc1	0%	-7%
CC(=O)NCC(=O)N(Cc1ccco1)C1(C(=O)NC2CCCC2)CCCCC1	1%	i
CCOc1ccc(CCNC(=O)CN2N=C(c3ccccc3)CCC2=O)cc1OCC	-7%	-6%
COc1ccc(-n2c(Cc3cc(=O)[nH]c(=O)[nH]3)nnc2SCC(=O)Nc2cc(C(F)(F)F)ccc2Cl)cc1	-8%	-7%
COC(=O)c1sc2[nH]c(=S)n(N)c(=O)c2c1C	-14%	-2%
Cc1ccc(S(=O)(=O)N2CCOCC2)cc1C(=O)Nc1ccccc1F	-17%	0%
CCOC(=O)c1ccc(N=c2sc(C(=O)OC)cc(=O)n2Cc2ccco2)cc1	-7%	i
COc1cccc(C(C(=O)NCc2ccccc2)N2CCN(c3cccc(C)c3C)CC2)c1OC (configuration not stated)	?	?
COc1cccc(CN2CCC2(C)C(=O)Nc2ccc3c(c2)CCN3C(C)=O)c1F (configuration not stated)	-10%	2%
CCC(C(=O)Nc1cc(-c2nc3cccnc3s2)ccc1C)c1ccccc1 (configuration not stated)	-6%	-5%
O=C(COc1cccc(Cl)c1)N1CCC(c2nc3ccccc3s2)CC1	-4%	-10%
Cc1ccc(S(=O)(=O)N2CCOCC2)cc1C(=O)NCc1cccnc1	-12%	i
CCCN(CCC)C(=O)Cn1c(=O)n(Cc2ccc(C(=O)NCCc3ccc(OC)c(OC)c3)cc2)c(=O)c2ccccc21	-19%	-13%
CCOC(=O)Cn1c(O)c(N=NC(=O)OC)c2ccccc21	-3%	-19%

Compound profiles (already shown).
Profile of COc1cc(NC(=O)Cn2nnnc2-c2ccccc2F)cc(OC)c1OC → Vaccinia Venus: -2%; VACV mCherry inh: -6%
Profile of COC(=O)c1ccc(CN2CCc3ccc(NC(=O)c4ccncc4)cc3C2)cc1 → Vaccinia Venus: -20%; VACV mCherry inh: -5%

(further entries)
SMILES	Vaccinia Venus	VACV mCherry inh
CCCNS(=O)(=O)c1cccc(C(=O)NNC(=O)c2cc(C)oc2C)c1	-8%	-10%
CN1CCN(CCC(=O)N/N=C/C=C2\N(C)c3ccccc3C2(C)C)CC1	1%	-11%
Cc1ccsc1C(=O)N(C)CC(=O)N(CC(C)C)c1c(N)n(CC(C)C)c(=O)[nH]c1=O	-14%	i
CCOc1ccc(C(=O)Nc2cccc(OCc3cc(=O)n4cc(C)sc4n3)c2)cc1	3%	-5%
Cc1ccc(OCC(=O)Nc2ccc(C)c(S(=O)(=O)N3CCCCC3)c2)c([N+](=O)[O-])n1	-26%	?
Cc1cccc(NC(=O)c2sc3nc4c(cc3c2N)CN(Cc2ccccc2)CC4)c1	?	?
CCOc1cccc(C(=O)NC2CCCCC2)c1	-7%	-18%
O=C(Oc1ccccc1)c1ccc2c(c1)C(=O)N(Cc1ccncc1)C2=O	-9%	-22%

Molecules above with an aryl methoxy group (14):
SMILES	Vaccinia Venus	VACV mCherry inh
COc1cc2ccccc2cc1C(=O)Nc1cc(C)ccn1	-10%	-10%
COc1cc(CCC(=O)Oc2ccc(C(C)=O)cc2)cc(OC)c1OC	-7%	-10%
COc1ccc(CCN2CC(C(=O)N(C)CC(=O)Nc3ccc(Cl)c(C(F)(F)F)c3)CC2=O)cc1OC (configuration not stated)	-21%	-6%
COc1cc(NC(=O)CN2C(=O)C(c3ccccc3)=NC23CCCCCC3)cc(OC)c1	-14%	-15%
COc1ccc(N(C(=O)Cn2nnc3ccccc32)C(C(=O)NCc2ccco2)c2ccc(C)o2)cc1 (configuration not stated)	-17%	.
COc1ccccc1N1CC(C(=O)Nc2ccc(S(=O)(=O)N3CCOCC3)cc2)CC1=O (configuration not stated)	-5%	-10%
COc1ccc(CNc2nc(-c3ccc(Cl)cc3)nn2S(=O)(=O)c2ccc(C)cc2)cc1	1%	-13%
COc1ccc(-c2c(NC(=O)c3ccco3)oc3c(C)cccc3c2=O)cc1	-14%	-2%
COc1cc(NC(=O)Cn2nnnc2-c2ccccc2F)cc(OC)c1OC	-2%	-6%
COc1ccc(CN(C#N)c2nc(SC)nc(N(C)C)n2)cc1	-11%	-5%
COc1ccc(-n2c(Cc3cc(=O)[nH]c(=O)[nH]3)nnc2SCC(=O)Nc2cc(C(F)(F)F)ccc2Cl)cc1	-8%	-7%
COc1cccc(C(C(=O)NCc2ccccc2)N2CCN(c3cccc(C)c3C)CC2)c1OC (configuration not stated)	?	?
COc1cccc(CN2CCC2(C)C(=O)Nc2ccc3c(c2)CCN3C(C)=O)c1F (configuration not stated)	-10%	2%
CCCN(CCC)C(=O)Cn1c(=O)n(Cc2ccc(C(=O)NCCc3ccc(OC)c(OC)c3)cc2)c(=O)c2ccccc21	-19%	-13%

Hits appear at their usual frequency; overall some 0.82% were active at least once.
